Compound activity from PubChem BioAssay.
HIV Env fusion: HIV envelope-mediated fusion inhibition. HeLa-JRFL Env/CEM21 cell fusion, luciferase. inhibition, % at 12.3 µM. 1.1% of 360,000 active. AID 651610;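 active = mean replicate inhibition score of at least 50 and every replicate individually at or above 50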;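 note: 0% = plate neutral controls and 100% = maraviroc near 300 nM; one replicate is shown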
UUG fidelity: alters start codon recognition fidelity in yeast | 0.13% of 350,000 active | AID 602363 | activity score, % at 18.7 µM | S. cerevisiae UUG-firefly luciferase reporter, luminescence/redox ratio;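 active = replicate mean at a twofold rise or more, about +100% in these data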;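 note: firefly luciferase made from a UUG start codon reports start codon fidelity; reporter light over untreated wells divided by growth signal over untreated wells; some hits fall short of that in this replicate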
* = called active by the depositor; [ ] = dose if it differs, or a comment. This is a subset. The share of hits here may be higher or lower than overall.

SMILES	HIV Env fusion	UUG fidelity
CCC(=O)N(C)C[C@@H]1Oc2ncc(C#CC3(O)CCCC3)cc2C(=O)N([C@H](C)CO)C[C@H]1C	-5[16.7 µM]	-5
CCCN(C)C[C@H]1OCCCC[C@@H](C)Oc2ccc(NC(=O)CCCN(C)C)cc2C(=O)N([C@H](C)CO)C[C@@H]1C	10[16.7 µM]	-1
CC(C)NC(=O)Nc1ccc2c(c1)C(=O)N([C@@H](C)CO)C[C@@H](C)[C@@H](CN(C)CC1CCCCC1)O2	-5[16.7 µM]	12
C[C@H]1CN([C@@H](C)CO)C(=O)c2cc(NC(=O)c3ccncc3)ccc2O[C@@H]1CN(C)C(=O)Nc1cccc2ccccc12	-11[16.7 µM]	-7
COc1ccc(-c2cnc3c(c2)C(=O)N([C@@H](C)CO)C[C@H](C)[C@@H](CN(C)Cc2ccccn2)O3)cc1	-17[16.7 µM]	-30
Cc1cccc(S(=O)(=O)N(C)C[C@@H]2OCc3cn(nn3)CCCC(=O)N([C@H](C)CO)C[C@@H]2C)c1	-19[16.7 µM]	-3
C[C@@H]1CN([C@@H](C)CO)C(=O)c2cc(NC(=O)C3CC3)ccc2O[C@H]1CN(C)Cc1ccc2c(c1)OCO2	-3[16.7 µM]	6
Cc1ccc(S(=O)(=O)N[C@H]2C=C[C@@H](CC(=O)NCCCN(C)C)O[C@H]2CO)cc1	-2[16.7 µM]	-5
COc1ccc(CN(C)C[C@H]2Oc3ccc(NC(=O)C4CCCCC4)cc3C(=O)N([C@H](C)CO)C[C@H]2C)cc1	-12[16.7 µM]	-5
COc1ccc(S(=O)(=O)Nc2ccc3c(c2)CC(=O)N([C@H](C)CO)C[C@H](C)[C@@H](CN(C)C(=O)Nc2cccc4ccccc24)O3)cc1	-4[16.7 µM]	-4
COc1cccc(S(=O)(=O)N[C@@H]2CC[C@@H](CC(=O)NCc3ccc(Cl)cc3)O[C@@H]2CO)c1	2[16.7 µM]	0
C[C@@H]1CN([C@@H](C)CO)C(=O)c2cccc(NC(=O)c3nc4ccccc4s3)c2O[C@@H]1CN(C)Cc1ccccc1	2[16.7 µM]	-2
C[C@H]1CN([C@@H](C)CO)C(=O)c2cc(/C=C/c3ccccc3)cnc2O[C@@H]1CN(C)C(=O)c1cnccn1	12[16.7 µM]	1
COc1ccc(S(=O)(=O)N(C)C[C@@H]2Oc3ccc(NS(C)(=O)=O)cc3CC(=O)N([C@@H](C)CO)C[C@H]2C)cc1	6[16.7 µM]	-5
C[C@@H]1CN([C@H](C)CO)C(=O)c2cc(NC(=O)Nc3ccccc3)ccc2O[C@H]1CN(C)Cc1ccc(-c2ccccc2)cc1	17[16.7 µM]	6
CN(C)CC(=O)N[C@@H]1CC[C@@H](CCNC(=O)C2CCCC2)O[C@@H]1CO	-18[16.7 µM]	-12
O=C(N1CCOCC1)[C@@]1(Cc2ccccc2)N=C(c2ccc(OCCCO)cc2)O[C@H]1c1ccccc1	24[16.7 µM]	14
COCC#Cc1ccc2c(c1)O[C@H](CN(C)C(=O)C1CCC1)[C@@H](C)CN([C@H](C)CO)S2(=O)=O	-156[16.7 µM]	-6
Cc1noc(C)c1S(=O)(=O)Nc1ccc2c(c1)C(=O)N([C@H](C)CO)C[C@@H](C)[C@@H](CN(C)S(=O)(=O)c1c(C)noc1C)OCCCC[C@H](C)O2	5[16.7 µM]	35
CO[C@H]1CN(C)C(=O)c2ccc(NS(C)(=O)=O)cc2OC[C@@H](C)N(C(=O)C2CCCCC2)C[C@H]1C	1[16.7 µM]	15
C[C@H](CO)N1C[C@H](C)[C@@H](CN(C)C(=O)c2ccccc2F)Oc2ncc(-c3ccc(F)cc3)cc2C1=O	14[16.7 µM]	12
C/C=C/c1ccc([C@@H]2[C@@H](CO)N(c3ncc(CC)s3)[C@H]2C#N)cc1	41[16.7 µM]	9
COc1ccc(NC(=O)O[C@@H](c2ccc(OC)c(O)c2)[C@H](CCO)OC)cc1	-2[16.7 µM]	22
CCC(=O)N(C)C[C@H]1Oc2cc(-c3ccccc3OC)ccc2S(=O)(=O)N([C@@H](C)CO)C[C@H]1C	-14[16.7 µM]	-14
CC(C)C#Cc1cnc2c(c1)C(=O)N([C@H](C)CO)C[C@H](C)[C@H](CN(C)C(=O)c1ccc3c(c1)OCO3)O2	13[16.7 µM]	3
COc1ccc(NC(=O)Nc2ccc3c(c2)C(=O)N([C@@H](C)CO)C[C@@H](C)[C@H](CN(C)S(=O)(=O)c2ccccc2)OCCCC[C@H](C)O3)cc1	5[16.7 µM]	5
CC(C)c1cn(CC[C@@H]2CC[C@@H](NC(=O)C3CCC3)[C@H](CO)O2)nn1	17[16.7 µM]	-6
O=C(C[C@@H]1C[C@H]2c3cc(NC(=O)C4CCOCC4)ccc3O[C@H]2[C@@H](CO)O1)NCC1CC1	-8[16.7 µM]	-13
O=C(C[C@H]1CC[C@H](NC(=O)Nc2cc(F)ccc2F)[C@H](CO)O1)Nc1ccc(-c2ccccc2)cc1	-5[16.7 µM]	27
CO[C@@H]1CN(C)C(=O)c2cc(NC(=O)Cc3ccccc3)ccc2OC[C@H](C)N(CC2CC2)C[C@H]1C	7[16.7 µM]	16
C[C@@H]1CCCCO[C@@H](CN(C)S(=O)(=O)c2ccccc2)[C@H](C)CN([C@H](C)CO)C(=O)c2cc(NC(=O)CCC(F)(F)F)ccc2O1	-15[16.7 µM]	7
CCC(=O)N(C)C[C@H]1Oc2cc(-c3ccc(OC)cc3)ccc2S(=O)(=O)N([C@@H](C)CO)C[C@@H]1C	-28[16.7 µM]	12
C[C@H](CO)N1C[C@H](C)[C@H](CN(C)S(=O)(=O)c2cccs2)Oc2c(NC(=O)c3nc4ccccc4s3)cccc2C1=O	10[16.7 µM]	-6
O=C(N[C@@H]1CC[C@@H](CCNC(=O)C2CC2)O[C@H]1CO)c1ccncc1	-11[16.7 µM]	-5
C[C@@H]1CN([C@H](C)CO)C(=O)c2cc(C#CC3CCCC3)cnc2O[C@H]1CN(C)S(C)(=O)=O	16[16.7 µM]	-5
C[C@@H]1CCCCO[C@@H](CN(C)C(=O)c2ccccc2)[C@@H](C)CN([C@H](C)CO)C(=O)c2cc(NS(=O)(=O)c3cccs3)ccc2O1	-3[16.7 µM]	-1
COc1ccc(S(=O)(=O)N(C)C[C@H]2OCCCC[C@H](C)Oc3ccc(NC(=O)Cc4ccccc4)cc3C(=O)N([C@@H](C)CO)C[C@H]2C)cc1	-2[16.7 µM]	-11
C[C@H]1CN([C@@H](C)CO)C(=O)c2cc(-c3cccc(F)c3)cnc2O[C@@H]1CN(C)C(=O)c1cnccn1	22[16.7 µM]	-3
COc1ccc(NC(=O)N(C)C[C@@H]2Oc3ncc(C#CCC(C)C)cc3C(=O)N([C@@H](C)CO)C[C@@H]2C)cc1	-1[16.7 µM]	13
C[C@@H](NC(=O)C[C@@H]1C[C@@H]2c3cc(NC(=O)NC4CCCC4)ccc3O[C@@H]2[C@@H](CO)O1)c1ccccc1	5[16.7 µM]	-6
COc1ccc(C(=O)Nc2ccc3c(c2)C(=O)N(C)C[C@@H](OC)[C@@H](C)CN[C@@H](C)CO3)cc1	-1[16.7 µM]	0
C[C@@H]1CN([C@H](C)CO)C(=O)Cc2cc(NC(=O)C3CCCCC3)ccc2O[C@@H]1CN(C)Cc1ccc(-c2ccccc2)cc1	-5[16.7 µM]	-4
C[C@@H]1CN([C@@H](C)CO)C(=O)Cc2cc(NC(=O)c3ccncc3)ccc2O[C@@H]1CN(C)C(=O)Nc1cccc2ccccc12	-4[16.7 µM]	-3
CN1CCN(C(=O)C[C@@H]2CC[C@@H]3[C@@H](COc4ccc(NC(=O)C5CCCCC5)cc4C(=O)N3C)O2)CC1	-4[16.7 µM]	-11
C[C@@H]1CN([C@H](C)CO)C(=O)c2cccc(NC(=O)C3CCCCC3)c2O[C@@H]1CN(C)C(=O)NC1CCCCC1	15[16.7 µM]	0

Nine entries already listed, ordered by count of non-hydrogen atoms, low to high.
SMILES	HIV Env fusion	UUG fidelity
O=C(N[C@@H]1CC[C@@H](CCNC(=O)C2CC2)O[C@H]1CO)c1ccncc1	-11[16.7 µM]	-5
C[C@@H]1CN([C@H](C)CO)C(=O)c2cc(C#CC3CCCC3)cnc2O[C@H]1CN(C)S(C)(=O)=O	16[16.7 µM]	-5
C[C@H]1CN([C@@H](C)CO)C(=O)c2cc(-c3cccc(F)c3)cnc2O[C@@H]1CN(C)C(=O)c1cnccn1	22[16.7 µM]	-3
CN1CCN(C(=O)C[C@@H]2CC[C@@H]3[C@@H](COc4ccc(NC(=O)C5CCCCC5)cc4C(=O)N3C)O2)CC1	-4[16.7 µM]	-11
COc1ccc(NC(=O)N(C)C[C@@H]2Oc3ncc(C#CCC(C)C)cc3C(=O)N([C@@H](C)CO)C[C@@H]2C)cc1	-1[16.7 µM]	13
C[C@@H]1CN([C@H](C)CO)C(=O)c2cccc(NC(=O)C3CCCCC3)c2O[C@@H]1CN(C)C(=O)NC1CCCCC1	15[16.7 µM]	0
C[C@@H]1CN([C@@H](C)CO)C(=O)Cc2cc(NC(=O)c3ccncc3)ccc2O[C@@H]1CN(C)C(=O)Nc1cccc2ccccc12	-4[16.7 µM]	-3
C[C@@H]1CCCCO[C@@H](CN(C)C(=O)c2ccccc2)[C@@H](C)CN([C@H](C)CO)C(=O)c2cc(NS(=O)(=O)c3cccs3)ccc2O1	-3[16.7 µM]	-1
C[C@@H]1CCCCO[C@@H](CN(C)S(=O)(=O)c2ccccc2)[C@H](C)CN([C@H](C)CO)C(=O)c2cc(NC(=O)CCC(F)(F)F)ccc2O1	-15[16.7 µM]	7

(further entries)
SMILES	HIV Env fusion	UUG fidelity
O=C(C[C@H]1C[C@@H]2c3cc(NC(=O)NC4CCCC4)ccc3O[C@@H]2[C@@H](CO)O1)NCC1CC1	-3[16.7 µM]	2
CC(C)NC(=O)Nc1ccc2c(c1)CC(=O)N([C@@H](C)CO)C[C@H](C)[C@H](CN(C)S(=O)(=O)c1cccs1)O2	57*[16.7 µM]	-6
COc1ccc(S(=O)(=O)Nc2cccc3c2O[C@H](CN(C)Cc2ccc(C(F)(F)F)cc2)[C@@H](C)CN([C@@H](C)CO)C3=O)cc1	-3[16.7 µM]	-3
C[C@@H]1CN([C@@H](C)CO)C(=O)c2cc(NS(=O)(=O)c3ccccc3)ccc2O[C@@H](C)CCCCO[C@@H]1CN(C)C(=O)Nc1ccc2c(c1)OCO2	-3[16.7 µM]	18
Cc1noc(C)c1NC(=O)N(C)C[C@H]1Oc2ccc(NC(=O)Nc3ccc(F)cc3)cc2C(=O)N([C@@H](C)CO)C[C@@H]1C	-28[16.7 µM]	-5
O=C(C[C@@H]1CC[C@H]2[C@@H](COC[C@H](O)CN2CCC(F)(F)F)O1)N1CCC(Cc2ccccc2)CC1	6[16.7 µM]	3
CCCN(C)C[C@H]1Oc2ncc(-c3cccnc3)cc2C(=O)N([C@H](C)CO)C[C@H]1C	-24[16.7 µM]	-10
CC(C)C#Cc1cnc2c(c1)C(=O)N([C@@H](C)CO)C[C@@H](C)[C@H](CN(C)Cc1ccc3c(c1)OCO3)O2	7[16.7 µM]	11
CO[C@H]1CN(C)C(=O)c2cc(NC(C)=O)ccc2OC[C@@H](C)N(Cc2cc(F)ccc2F)C[C@@H]1C	-14[16.7 µM]	-10
CN(C)C(=O)C[C@@H]1C[C@H]2c3cc(NS(C)(=O)=O)ccc3O[C@H]2[C@H](CO)O1	-8[16.7 µM]	-6
CC(=O)N(C)C[C@@H]1Oc2cc(C#CCC(C)C)ccc2S(=O)(=O)N([C@H](C)CO)C[C@H]1C	12[16.7 µM]	20
C[C@@H]1CCCCO[C@H](CN(C)CC2CCCCC2)[C@H](C)CN([C@@H](C)CO)C(=O)c2cc(NS(=O)(=O)c3ccccc3)ccc2O1	-9[16.7 µM]	26
C[C@@H]1CN([C@H](C)CO)C(=O)c2cc(-c3ccccc3)cnc2O[C@H]1CN(C)C(=O)Cc1ccccn1	-8[16.7 µM]	-11
COc1ccccc1-c1ccc([C@@H]2[C@@H](C#N)N(C(=O)C3CC3)[C@H]2CO)cc1	18[16.7 µM]	-6
C[C@H]1CN([C@@H](C)CO)C(=O)c2cc(NC(=O)Nc3ccc(C(F)(F)F)cc3)ccc2O[C@@H]1CN(C)Cc1ccc(-c2ccccc2)cc1	-43[16.7 µM]	41
CNC(=O)C[C@@H]1CC[C@@H]2[C@H](COc3ccc(NC(=O)Nc4ccccc4)cc3C(=O)N2C)O1	6[16.7 µM]	-1
O=C(C[C@@H]1CC[C@H]2[C@@H](COC[C@H](O)CN2C(=O)c2cnccn2)O1)N1CCN(c2ccccc2)CC1	-2[16.7 µM]	-10
O=C(C[C@@H]1CC[C@@H](NC(=O)C2CC2)[C@H](CO)O1)NCc1ccccc1Cl	0[16.7 µM]	8
CN(C)C(=O)C[C@@H]1CC[C@H]2[C@@H](COc3ccc(NC(=O)C4CCOCC4)cc3C(=O)N2C)O1	21[16.7 µM]	-1
C[C@@H]1CN([C@H](C)CO)C(=O)c2cc(-c3cccc(F)c3)cnc2O[C@@H]1CN(C)S(=O)(=O)c1cccc(F)c1	9[16.7 µM]	-4
O=C(NCC[C@H]1CC[C@H](NS(=O)(=O)c2ccc(Cl)cc2)[C@H](CO)O1)c1ccccc1F	-2[16.7 µM]	13
C[C@@H]1CN([C@@H](C)CO)S(=O)(=O)c2ccc(-c3ccccc3)cc2O[C@H]1CN(C)C(=O)Cc1ccccc1	-14[16.7 µM]	8
COc1ccc(S(=O)(=O)Nc2ccc3c(c2)C(=O)N([C@@H](C)CO)C[C@@H](C)[C@H](CN(C)S(=O)(=O)c2ccc(F)cc2)OCCCC[C@@H](C)O3)cc1	-9[16.7 µM]	51
Cc1ccc(-c2ccc3c(c2)O[C@H](CN(C)Cc2ccccc2)[C@H](C)CN([C@H](C)CO)S3(=O)=O)cc1	18[16.7 µM]	-1
C[C@H]1CN([C@@H](C)CO)C(=O)Cc2cc(NC(=O)Nc3cccc4ccccc34)ccc2O[C@H]1CN(C)C(=O)Nc1ccc(C(F)(F)F)cc1	-4[16.7 µM]	14
CC(C)c1ccc(CC(=O)N2CCC2(C)C(=O)NCc2cccc3ccccc23)cc1 (stereo not given)	-45	3
